Screening results from PubChem.
miR-21 FLuc – raises the signal of a miR-21 reporter | Potency, µM (series often up to 38.3 µM), without a hit: top-dose reporter change, positive = more light | 340,000 tested, under 10 active | HeLa miR-21 FLuc reporter, luciferase, 48 h | AID 2288; active = well fitted rising curve with a large enough effect; inconclusive = small, poorly fitted or top-dose-only effect; inactive = no such curve, though single readings can be large or run the other way;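 also: % of control where 0% means no effect; miR-21 action dims this reporter so a rising signal means less miR-21 action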
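HeLa miR-21-FLuc reporter line, endogenous miR-21; 2000 cells/well in DMEM/10% FBS; compound titration up to ~40uM final, 48 h, 37 degree Celsius; luciferase detection reagent, 15 min lysis, CCD luminescence.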
An asterisk follows results filed as active; ? = inconclusive.

SMILES	miR-21 FLuc
CCc1ccccc1-n1c(SCC(=O)Nc2ccc(C)cc2)nc2n[nH]c(C)c2c1=N	15%
Cc1cccc(-n2c(=O)c3c(c4cc(C)ccc4n3C)n(CC(=O)Nc3ccc(C)cc3C)c2=O)c1	1%
COC(=O)c1cc2sccc2n1Cc1ccccc1	16%
N#C/C(=C\c1ccc(-c2ccc(Cl)c(C(=O)O)c2)o1)c1nc2ccccc2[nH]1	-2%
Cc1nnc(N2CCN(c3cccc(C(F)(F)F)c3)CC2)c2c1nnn2Cc1ccccc1	30%
O=C(CSCc1cnn(-c2ccccc2)c1-n1cccc1)NCc1ccc(Cl)cc1	-13%
CCOc1ccc(NC(=O)CN2CCCN(Cc3cc(C)ccc3C)S2(=O)=O)cc1	?
Cc1cccc(-c2noc(CN(C(=O)c3ccccc3Cl)C(C)C)n2)c1	7%
Cc1oc2ncn(CC(C)C)c(=O)c2c1C(=O)Nc1cccc(C(F)(F)F)c1	-1%
Nc1nc(SCC(=O)Nc2cccc(C(F)(F)F)c2)n[nH]1	0%
Clc1ccc(CSc2nncn3c2cc2occc23)cc1	-17%
CCOc1ccc(CCNC(=O)C2CCN(C(=O)N3CC(CC)Oc4ccccc43)CC2)cc1 (stereo not drawn)	13%
COc1ccc(-c2nc(SCCOc3ccccc3Cl)n3[nH]c(=O)cc3n2)cc1	-33%
COc1ccccc1CNC(=O)c1cc2cccc3c2n1CCS3	17%
CC(C)c1ccc(Nc2ncnc3c2nc2n3CCCC2)cc1	11%
COC(=O)CCn1cnc2onc(-c3cc(F)cc(F)c3)c2c1=O	-5%
CCOc1ccc(Oc2nc(NCC(C)C)nc(NC(C)(C)C)n2)nn1	0%
O=C1[C@@H]2CSC(c3ccc(Cl)cc3)N2C(=O)N1c1ccccc1 (stereo partly drawn)	4%
COc1ccc(CCN2C(=O)CN(C3CCC(C)CC3)C(=O)C2c2ccc(OC(C)C)c(OC)c2)cc1OC (stereo not drawn)	-9%
Cc1cc(C)c2nc(N3CCCC(C(=O)NCc4cccc(Br)c4)C3)sc2c1 (stereo not drawn)	-3%
CC(C)Sc1ncc(Cl)c(C(=O)Nc2nnc(C(C)C)s2)n1	0%
CCOC(=O)CCn1cnc2onc(-c3ccccc3Cl)c2c1=O	-44%
COc1ccc2cc3cc(C(=O)NCc4ccccc4OC)oc3nc2c1	-6%
CCN1C(=O)c2ccccc2Sc2ccc(NC(=O)Nc3cc(C)cc(C)c3)cc21	-2%
CCN(CC)c1ccc(NC(=O)CCc2nc3cccnc3n2Cc2cccs2)c(C)c1	-2%
COc1ccc(C2CC(=O)c3cc(-c4nc(-c5ccc(Cl)cc5)c(C)s4)c(=O)[nH]c3C2)cc1 (stereo not drawn)	-4%
COCc1cc(C)nc2sc(C(=O)Nc3ccc(OC(F)(F)F)cc3)c(N)c12	-2%
Cc1ccc(CNC(=O)C2CCN(S(=O)(=O)c3ccc4[nH]c(=O)ccc4c3)CC2)cc1	-1%
O=C(Nc1ccc(C(F)(F)F)cc1)C1CCC(CNS(=O)(=O)c2cccc3nsnc23)CC1 (stereo not drawn)	2%
COc1ccc(NC(=O)C2CCC(CNS(=O)(=O)c3ccc(Br)s3)CC2)cc1OC (stereo not drawn)	-10%
COc1ccccc1N1CCN(S(=O)(=O)c2ccc(-c3ccno3)cc2OC)CC1	10%
CCOc1ccccc1C1C(C(=O)Nc2ccccc2)=C(C)Nc2nc(-c3ccccc3)nn21 (stereo not drawn)	?
Cc1nnc(NC(=O)c2ccccc2)s1	-38%
COCCCNC(=O)c1cnc2sc(N3CCCCC3)nn2c1=O	-5%
Cn1c(=O)[nH]c2cc(-c3noc(-c4cccc(Cl)c4)n3)ccc21	-16%
CSc1ccc(CNC(=O)c2ccc3c(c2)N(C)C(=O)C2CCCCN32)cc1 (stereo not drawn)	-1%

Rewritten in markdown: part of the list above.
| SMILES | miR-21 FLuc |
| --- | --- |
| COc1ccccc1CNC(=O)c1cc2cccc3c2n1CCS3 | 17% |
| CC(C)c1ccc(Nc2ncnc3c2nc2n3CCCC2)cc1 | 11% |
| COC(=O)CCn1cnc2onc(-c3cc(F)cc(F)c3)c2c1=O | -5% |
| CCOc1ccc(Oc2nc(NCC(C)C)nc(NC(C)(C)C)n2)nn1 | 0% |
| O=C1[C@@H]2CSC(c3ccc(Cl)cc3)N2C(=O)N1c1ccccc1 (stereo partly drawn) | 4% |

Other compounds follow:
SMILES	miR-21 FLuc
Cc1ccc(-n2nnnc2CNC(=O)c2ccccc2S(C)(=O)=O)cc1C	-6%
Cc1ccc(C)c(Cn2nnc(C(=O)NCc3ccc(Cl)cc3Cl)c2N)c1	0%
Cc1ccc(S(=O)(=O)c2nnn3c2nc(NC2CCCCC2)c2sccc23)cc1	-5%
CCN(CC)CCn1c2c(c(SCC(=O)Nc3cccc(C(F)(F)F)c3)nc1=O)CCC2	0%
O=C(NC(=S)Nc1ccccc1N1CCCC1)c1ccccc1Br	-15%
COc1ccccc1NC(=O)c1c(NCc2ccc(C)o2)sc2c1CCC(C)C2 (stereo not drawn)	-2%
COc1ccc(-c2cc(C(F)(F)F)c(C#N)c(SCC(=O)Nc3cccc(C)c3)n2)cc1	3%
COc1ccccc1NC(=O)CSc1nncn2c1cc1sccc12	-1%
COc1ccc(CNC(=O)c2cc(-c3ccc(OC)cc3)nc3n[nH]c(-c4cccc([N+](=O)[O-])c4)c23)cc1	12%
COc1ccc(OCC(=O)Nc2ccc(O)c(-c3nc4ccccc4s3)c2)cc1	-22%
COC(=O)Cn1c(SCCOc2ccccc2OC)nc2ccccc21	-3%
Cc1cc(=O)n(Cc2ccccc2Cl)c2c1c(C)nn2-c1ccccc1	-1%

Sorted by value in miR-21 FLuc (descending): some entries from above
SMILES	miR-21 FLuc
COc1ccc(-c2cc(C(F)(F)F)c(C#N)c(SCC(=O)Nc3cccc(C)c3)n2)cc1	3%
Cc1ccc(-n2nnnc2CNC(=O)c2ccccc2S(C)(=O)=O)cc1C	-6%
COc1ccc(NC(=O)C2CCC(CNS(=O)(=O)c3ccc(Br)s3)CC2)cc1OC (stereo not drawn)	-10%

(continued)
SMILES	miR-21 FLuc
COc1ccccc1C(=O)NCCc1csc(-c2ccc(C(F)(F)F)cc2)n1	?
CCOC(=O)c1c(C)oc2nc(C)nc(NCC3CCN(Cc4cccc(Cl)c4)CC3)c12	2%
Brc1ccc(-c2ccc(CNCCSc3nnnn3-c3ccccc3)o2)cc1	?
CCOc1ccccc1NC(=O)N1CCN(Cc2cc(=O)n3nc(-c4ccc(C)cc4)sc3n2)CC1	1%
COc1ccc(-c2cc(C)nc3c(-c4ccc(OC)c(OC)c4)c(C)nn23)cc1	22%
Fc1ccc(-n2ncc3c(N4CCC(Cc5ccccc5)CC4)ncnc32)cc1	-5%
CCOc1ccccc1CNC(=O)c1cccc(NC(=O)c2nsc3ccccc23)c1	-62%
Cc1ccccc1NCc1nc2ccccc2n1CCOc1ccccc1	-32%
O=C1CC(=O)Nc2cc(S(=O)(=O)Nc3cccc(Br)c3)ccc2N1	-1%
Cc1cc2nc(-c3ccc(OCc4ccccc4Cl)cc3)cc(C(F)(F)F)n2n1	-5%
COc1ccc(OC)c(C2Nc3c(C)cc(C)cc3-c3cc(C)nn32)c1 (stereo not drawn)	12%
CC(C)CC(=O)NCC1(N(C)C)CCCCC1	-3%
COc1cccc(-n2c(-c3ccc(Cl)cc3)cc3c2CC(C)(C)CC3=O)c1	18%
COc1ccc(OC)c(NC(=O)CSC2=Nc3ccccc3C3=NC(CCC(=O)NCc4ccco4)C(=O)N23)c1 (stereo not drawn)	-6%
CC(C)Oc1ccc(CNS(=O)(=O)c2ccc3c(c2)C(C)(C)C(=O)N3C)cc1	5%
CCn1c(CN2CCOCC2)nc2cc(NC(=O)c3ccccc3[N+](=O)[O-])ccc21	-3%
CCN(C(=O)c1cnc2ccc(C)cn2c1=O)c1ccccc1	0%
Cc1cc(C)cc(NS(=O)(=O)c2ccc3c(c2)CCCN3C(=O)C2CCC2)c1	11%
CCOc1ccc2c(c1)c(=O)c(S(=O)(=O)c1ccc(Cl)cc1)cn2Cc1ccccc1C	-6%
CC(=O)c1cccc(Nc2cc(C)nc3nc(Cc4ccccc4)nn23)c1	-12%
COc1ccc(OC)c2sc(N(Cc3cccnc3)C(=O)c3ccco3)nc12	-1%
CCOC(=O)c1cc2c(=O)n3ccccc3nc2n(CC2CCCO2)c1=NC(=O)c1ccccc1OCC (stereo not drawn)	-3%
COc1cccc(C(=O)c2sc(Nc3ccc(F)c(Cl)c3)nc2N)c1	0%
CCOC(=O)c1ccccc1NC(=O)Cn1ncc2c1-c1ccccc1OC2	-1%
COc1ccc(/C=C/c2nc(C#N)c(N3CCN(c4ccccc4)CC3)o2)cc1OC	-6%
COc1ccc(C(=O)NCC(c2ccc3c(c2)OCO3)N2CCN(C)CC2)cc1 (stereo not drawn)	-4%
Cc1ccc(N2C(=O)c3n[nH]c(C)c3C2c2ccc(C(C)C)cc2)cc1 (stereo not drawn)	10%
CCOc1ccc(NC(=O)c2cnn3c2NC(C)=C(C(=O)Nc2ccc(Cl)cc2)C3c2ccc(OC)c(OC)c2)cc1 (stereo not drawn)	0%
COc1ccc2c(c1)CCc1c(C(=O)Nc3cc(OC)c(Cl)cc3OC)noc1-2	-1%
Cc1cccc(C)c1NC(=O)c1ccc2c(c1)N(Cc1cccc(Cl)c1)C(=O)c1ccccc1S2=O (stereo not drawn)	-6%
COc1ccc(C(=O)/C=C/c2cn(CC(O)CN3CCc4ccccc43)c3ccccc23)cc1OC (stereo not drawn)	?
CCOC(=O)c1ccccc1NC(=O)n1ncc2cc(Cl)ccc21	-10%
O=C(Nc1ncc(Cc2ccc(F)cc2)s1)c1ccc2c(c1)CC(c1ccccc1)OC2=O (stereo not drawn)	1%
CC1CCCCN1S(=O)(=O)c1ccc2[nH]c(=O)cc(C(=O)NCCc3ccc(Cl)cc3)c2c1 (stereo not drawn)	-36%
CCc1ccc(-n2nnc(-c3nc(-c4ccccc4)no3)c2C)cc1	-68%
Cc1cccc(C)c1NC(=O)c1oc2c(c1C)-c1nn(Cc3ccccc3)cc1CC2	-2%
CCOc1cccc(C2c3[nH]c4ccccc4c3CCN2C(=O)c2ccccc2F)c1 (stereo not drawn)	29%
COc1ccc2c(c1)CCc1c(C(=O)Nc3c(C)nn(Cc4ccc(Cl)cc4)c3C)noc1-2	19%
CCC(Sc1nc2cc3c(cc2c(=O)n1CCCC(=O)NCc1ccc(OC)cc1)OCO3)C(=O)NCCCOC (stereo not drawn)	4%
COC(=O)c1ccc([C@H]2Nc3ccc(S(=O)(=O)Nc4cccc(C)c4)cc3[C@H]3C=CC[C@H]32)cc1	-3%
CCc1cccc(NC(=O)Cn2ncc3c([nH]c4ccc(C)cc43)c2=O)c1	1%
Cc1ccc(Cn2ccnc2SCC(=O)Nc2ccccc2C(F)(F)F)cc1	1%
Cc1nc(-c2ccc(Cl)cc2)sc1CCNC(=O)c1ccc(C(F)(F)F)cc1	-5%
COc1ccccc1N1CCN(S(=O)(=O)c2c(C)sc3ncn(CC(=O)Nc4ccc(C)cc4Br)c(=O)c23)CC1	7%
CC(NC(=O)c1cc2ccccn2n1)c1ccccc1 (stereo not drawn)	-7%
COc1cc(OC)c(Nc2c3c(nc4nc(-c5cccs5)nn24)CCCC3)cc1Cl	18%
COc1ccc(NC(=O)c2sc3nc(C)c(C(=O)Nc4ccc(C)cc4C)c(-c4cccs4)c3c2N)cc1	1%
CC(=O)c1ccc(NC(=O)c2nc(-c3ccccc3)n(-c3ccccc3Cl)n2)cc1	18%
Cc1ccccc1OCc1ccc(-c2nc(C#N)c(N3CCC(C(N)=O)CC3)o2)o1	-5%
Cc1ccc2onc(CC(=O)N3CCN(c4ccccc4F)CC3)c2c1	20%
COc1ccc(C2Oc3nc(SC)nnc3-c3ccccc3N2C(C)=O)cc1 (stereo not drawn)	1%
Cc1c(Cl)cccc1NC(=O)CN1C(=O)COc2ccc(S(=O)(=O)N3CCCCCC3)cc21	-6%
CCN(CC)CCOC(=O)c1ccc(NC(=O)c2nn(-c3ccc(C)cc3)c(=O)c3c2c2ccccc2n3C)cc1	?
COc1ccc(NC(=O)CSC2=Nc3ccccc3C3=NC(CCC(=O)NCc4ccc(F)cc4)C(=O)N23)cc1Cl (stereo not drawn)	-6%
Cc1cc(C)c(OCC(=O)Nc2cccc(-c3nc4ncccc4o3)c2)c(Br)c1	-8%
C#CC(C)(CC)NC(=O)Cn1nnc(-c2ccc(OCc3c(F)cccc3Cl)cc2)n1 (stereo not drawn)	8%
COc1ccc2cc3c(N)nn(C(=O)c4ccc(OC)c(OC)c4)c3nc2c1	2%
Cc1nn(CC(=O)NCc2ccc(F)cc2)c2ccccc12	-3%
O=S(=O)(c1cccc(C(F)(F)F)c1)n1c(/C=C/c2ccccc2)nc2ccccc21	32%
CCc1cccc(NC(=O)Cn2c(=O)n(CC(=O)NCCc3ccccc3)c(=O)c3ccccc32)c1	-4%
COc1ccc(CNS(=O)(=O)c2ccc(F)c(C(=O)Nc3c(C)cc(C)cc3C)c2)cc1	2%
O=C(Nc1ccccc1)Nc1nnc(SCC(=O)N2CCCCC2)s1	-4%
Cc1cc2oc(C(=O)Nc3ccc(S(=O)(=O)N4CCCCCC4)cc3)cc(=O)c2cc1C	3%

Pulled by structure from above (two):
SMILES	miR-21 FLuc
COCc1cc(C)nc2sc(C(=O)Nc3ccc(OC(F)(F)F)cc3)c(N)c12	-2%
Cc1ccc2onc(CC(=O)N3CCN(c4ccccc4F)CC3)c2c1	20%

A portion of the library; rates above refer to the full screens.
